TRPML1 agonist – qHTS for Agonists of the Human Mucolipin Transient Receptor Potential 1 (TRPML1) | TRPML1-expressing cells, Ca2+ dye fluorescence, FDSS; host cell line not named in the record; reference of the full effect not given here | AID 624414, 2012 | hit rate 0.12% among 410,000 | activation, % (concentration not given with the values); in the data active = activation above about 50%; inconclusive = about 30% to 50%; inactive = below about 30%; note: 0% is about no effect; the text of the record puts the active cut at 80%
Target sequence (Q9GZU1 whole entry, looked up): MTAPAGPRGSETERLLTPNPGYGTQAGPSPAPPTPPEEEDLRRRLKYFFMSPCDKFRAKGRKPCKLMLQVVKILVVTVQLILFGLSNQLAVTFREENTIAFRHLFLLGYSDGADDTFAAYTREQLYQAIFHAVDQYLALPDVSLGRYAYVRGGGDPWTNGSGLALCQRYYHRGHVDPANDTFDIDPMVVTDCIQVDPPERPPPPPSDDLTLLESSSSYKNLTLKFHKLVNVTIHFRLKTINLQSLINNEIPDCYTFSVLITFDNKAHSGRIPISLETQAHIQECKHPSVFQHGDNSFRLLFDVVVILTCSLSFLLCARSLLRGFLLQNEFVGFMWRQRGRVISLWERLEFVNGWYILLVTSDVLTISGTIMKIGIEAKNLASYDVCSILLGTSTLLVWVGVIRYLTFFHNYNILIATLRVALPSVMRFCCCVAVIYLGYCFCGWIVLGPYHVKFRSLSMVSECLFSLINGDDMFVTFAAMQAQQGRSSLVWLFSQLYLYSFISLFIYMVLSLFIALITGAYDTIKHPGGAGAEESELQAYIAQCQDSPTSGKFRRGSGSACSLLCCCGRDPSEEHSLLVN
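Cells: TRPML1-DL, 1X Tet inducer, ~16 h at 37 degrees C/5% CO2. Dye: ABD Ca8 no-wash + quencher, 45-90 min RT. Read: 10 s baseline, compound add, 110 s agonist phase; 54-4 EC80 (4uM final), 110 s antagonist phase.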
PINK1 modulator – A Quantitative High throughput Screen to Identify Chemical Modulators of PINK1 Expression. PINK1 immunofluorescence, high-content cytometry, 24 h. Potency, µM (titrated, usually from 76.6 µM), inactives show at the top dose activation (PINK1 increase), hits mostly activators. hit rate 0.2% among 410,000; active = well fitted activation curve with a large enough effect; inconclusive = small, poorly fitted or top-dose-only effect; inactive = flat fitted curve, though single readings scatter; cell line not stated here;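 note: potency is the fitted concentration of half-maximal effect; % of control where 0% means no effect; nearly all actives have a fitted effect of over 65% in size; a mitochondrial uncoupler was the plate control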
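Compound titrations (5 concentrations, 24 h) on a stable cell line; DMSO and CCCP controls. Endpoint: fixed-cell PINK1 immunofluorescence with mitochondrial, cell and nuclear markers, scanned by microplate cytometer.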
An asterisk follows results filed as active; u = inconclusive. A portion of the library; count on the stated rates, not on these rows.

| entry | Structure | TRPML1 agonist | PINK1 modulator |
| --- | --- | --- | --- |
| 1 | O=[N+]([O-])c1ccc(/C=C2\C=C(C(O)c3ccc([N+](=O)[O-])cc3)c3ccccc32)cc1 (stereo not drawn) | -0.3 | 19.3% |
| 2 | CCc1ccc(OCC(=O)NCc2nc(-c3cccc(C)c3)no2)c(Br)c1 | 2.8 | 3.4% |
| 3 | COc1ccccc1Cn1ccn(Cc2ccc(C)cc2)c(=O)c1=O | 0.5 | 6.7% |
| 4 | CCc1ccc(NC(=O)C2CCCN2S(=O)(=O)c2ccc3nc(-c4ccccc4)[nH]c3c2)cc1 (stereo not drawn) | 1.0 | 4.7% |
| 5 | C#CCSc1nc(-c2ccccc2)cc(-c2ccccc2)c1C#N | 0.0 | -0.2% |
| 6 | CCc1ccc(C2=CC(c3c(F)cccc3Cl)n3c(nc4ccccc43)N2)cc1 (stereo not drawn) | 10.5 | 3.2% |
| 7 | O=S(=O)(c1ccc(Cl)cc1)c1nc(-c2cccs2)oc1N1CCCCC1 | -0.2 | 0.5% |
| 8 | CN(c1ccc(F)cc1)S(=O)(=O)N1CCCC(C(=O)NCc2cccc(Br)c2)C1 (stereo not drawn) | 0.8 | 3.5% |
| 9 | CCc1ccc(S(=O)(=O)c2nnn3c2nc(NC2CCCC2)c2sccc23)cc1 | 0.3 | 0.2% |
| 10 | CC(C)c1ccc(NC(=O)C2CCCN(S(=O)(=O)c3ccc4[nH]c(=O)oc4c3)C2)cc1 (stereo not drawn) | 1.0 | 0.8% |
| 11 | Cc1ccccc1C(=O)N1CCN(CCc2ccccn2)CC1 | 1.9 | 0.2% |
| 12 | CCOc1cccc(CC(=O)N2CCc3c([nH]c4ccccc34)C2c2ccc(Cl)cc2)c1OCC (stereo not drawn) | 0.9 | -0.1% |
| 13 | COc1cc(Cl)c(C)cc1NC(=O)c1sc2nc3n(c(=O)c2c1C)CCCCC3 | 1.2 | -0.5% |
| 14 | COc1cc(Cl)c(NS(=O)(=O)c2cc(-c3cc(C)no3)ccc2OC)c(OC)c1 | 1.2 | 1.6% |
| 15 | COc1ccc(OC)c(-n2nnc(-c3nc(-c4cc(OC)c(OC)c(OC)c4)no3)c2C)c1 | 0.9 | -0.7% |
| 16 | COc1ccccc1N1CCN(CCCNC(=O)c2cnn(-c3ccccc3)c2C2CCN(C(=O)OC(C)(C)C)CC2)CC1 | 0.2 | 0.9% |
| 17 | CCOc1ccc2nc(N3CCC(C(=O)Nc4ccc(Br)cc4F)CC3)sc2c1 | 2.9 | 2.9% |
| 18 | COc1ccc(S(=O)(=O)N(CC(=O)NCCSc2ccccc2)c2ccc(C)cc2)cc1 | 0.4 | -1.0% |
| 19 | CCOCCCNC(=O)Cn1nc(C)n2c(cc3cc(C)ccc32)c1=O | -0.3 | 1.3% |
| 20 | Cc1ccc(Cl)cc1-n1ncc2c(NC3CCCCC3)ncnc21 | 0.7 | u |
| 21 | COc1ccc(CNC(=O)CCc2c(C)c3cc4c(C)coc4cc3oc2=O)cc1 | -0.9 | 3.4% |
| 22 | CC(NC(=O)C1CCN(C(=O)N2CCOc3ccccc32)CC1)c1ccccc1 (stereo not drawn) | -0.5 | 0.5% |
| 23 | COc1ccc(CNC(=O)CN(C)c2nn3c(=O)cc(C)nc3s2)cc1 | -0.2 | 1.1% |
| 24 | O=C(c1ccco1)c1cn(CCOc2ccc(F)cc2)c2ccccc12 | 0.7 | -1.1% |
| 25 | COc1ccc(OC)c(C(=O)CN2C(=O)N(c3cc(C)cc(C)c3)S(=O)(=O)c3ccccc32)c1 | 0.1 | 1.7% |
| 26 | Cc1ccc(Cl)cc1N1CCN(C(=O)c2ccc(CS(=O)c3ccccc3)o2)CC1 (stereo not drawn) | -0.3 | 6.2% |
| 27 | COc1ccc(NC(=O)c2ccc3c(c2)sc2nc(-c4ccc(OC)cc4)cn23)cc1 | 0.6 | 0.0% |
| 28 | Cc1ccc(-n2nc(C(=O)N3CCCCC3)c(=O)n(C)c2=O)cc1 | -0.6 | -1.0% |
| 29 | COc1ccc(NC(=O)c2c(NCc3cccs3)sc3c2CCCC3)cc1 | 1.7 | 3.8% |
| 30 | CC1CCCCN1CCCNC(=O)c1sc2ncccc2c1-n1cccc1 (stereo not drawn) | -0.5 | 3.0% |
| 31 | CCOC(=O)c1ccc(CN(Cc2ccc(Br)cc2)S(=O)(=O)c2cccc(Cl)c2C)cc1 | 0.9 | 0.5% |
| 32 | Cc1cc(NC(=O)Nc2nc3c(s2)CCCCCC3)ccc1Br | -0.2 | 3.7% |
| 33 | Clc1nc(NCc2ccco2)c2[nH]cnc2n1 | -0.5 | 0.3% |
| 34 | O=C(Nc1ccccc1)c1nc[nH]c1C(=O)O | -0.8 | -1.0% |
| 35 | Cc1nc(N2CCCC2)c2c(C(=O)Nc3cccc(C)c3C)c(C)oc2n1 | 0.4 | -11.7% |
| 36 | COc1ccc(CC(=O)NCc2ccc3c(c2)CCN3C(=O)c2ccc(Cl)cc2)cc1 | 0.6 | 2.4% |
| 37 | CCS(=O)(=O)c1nc(S(=O)(=O)c2ccc(C)cc2)c(NCCCOC)s1 | 1.3 | -0.5% |
| 38 | Cc1ccc(CNc2nc(-c3ccco3)nn2S(C)(=O)=O)cc1 | -1.2 | 0.9% |
| 39 | O=C(CN1CCN(Cc2ccc(F)cc2)C1=O)NCc1ccc(F)cc1 | 0.8 | -0.7% |
| 40 | CC(C)CC(=O)NCC(c1ccc2c(c1)OCO2)N1CCN(c2ccc(F)cc2)CC1 (stereo not drawn) | 0.6 | -0.5% |
| 41 | COc1ccc(NC(=O)C2CCC(CNS(=O)(=O)c3ccc4c(c3)C(C)(C)C(=O)N4C)CC2)cc1 (stereo not drawn) | 0.7 | 2.1% |
| 42 | CSc1nnc2n(-c3cccc(C)c3)c(=O)c3c4c(sc3n12)CCCC4 | 0.5 | -0.1% |
| 43 | CCOc1ccccc1NC(=O)CSc1nccn1-c1cccc(C)c1 | 2.8 | -3.6% |
| 44 | CCc1ccc(NC(=O)Nc2nnc(N(C)C3CCCCC3)s2)cc1 | -0.8 | 1.9% |
| 45 | CCCCNc1nc2c(-c3cccc(Br)c3)nnn2c2ccccc12 | -0.4 | -0.3% |
| 46 | CCOc1ccc(CCNC(=O)c2cnc3sc(N4CCCCCC4)nn3c2=O)cc1 | -0.3 | 2.2% |
| 47 | CCOC(=O)c1c(C)oc2nc(C)nc(NCC3CCN(Cc4ccc(F)cc4)CC3)c12 | -0.7 | 0.5% |
| 48 | Cc1ccccc1OCc1nnc(SCc2cc(=O)c3cc(F)ccc3[nH]2)n1C | 2.3 | 0.3% |
| 49 | COc1ccc(Cl)cc1-n1c(CCC(=O)O)ccc1-c1ccc(C)cc1 | 0.2 | 5.6% |
| 50 | O=C(NCc1ccccc1Cl)C(=O)NCC(c1cccs1)S(=O)(=O)c1cccs1 (stereo not drawn) | 4.1 | -0.5% |
| 51 | Cc1nnc(N2CCCC(C(=O)NCCc3ccccc3)C2)c2nn(-c3ccccc3)c(C)c12 (stereo not drawn) | 1.2 | 0.2% |
| 52 | CCOCN(C(=O)Cn1c(CC(C)C)nc2ccccc21)c1c(C)cccc1CC | 0.4 | -0.4% |
| 53 | Cc1cccc(NC(=O)c2nnn(CC(=O)Nc3ccc(C(C)C)cc3)c2N)c1C | -0.6 | 7.8% |
| 54 | COc1cccc2sc(N(Cc3cccnc3)C(=O)COc3ccccc3)nc12 | 1.6 | 4.0% |
| 55 | Cc1ccccc1NC(=O)c1ccc(F)c(S(=O)(=O)N(C)Cc2ccccc2)c1 | 3.0 | 2.1% |
| 56 | CCC(Cc1ccccc1)NC(=O)Cn1ncc2c3ccccc3n(Cc3ccccc3)c2c1=O (stereo not drawn) | 1.8 | 9.6% |
| 57 | CCCNC(=O)CCSc1nc(-c2ccc3c(c2)OCO3)cc(C(F)(F)F)n1 | 6.1 | 1.2% |
| 58 | COc1cccc(-c2nnc3n(Cc4ccc(F)cc4)c(=O)c4ccccc4n23)c1 | -1.2 | -1.7% |
| 59 | CSc1ccc(CCNC(=O)CCCn2nc(C)c3sc4ccccc4c3c2=O)cc1 | -0.2 | 0.2% |
| 60 | COc1ccc(CNC(=O)C2Cc3cc(S(=O)(=O)N4CCCCCC4)ccc3N2C(C)=O)cc1 (stereo not drawn) | -0.6 | 1.1% |
| 61 | COc1ccc(C2CC(=O)N(CC(=O)Nc3cccc(C)c3C)c3ccccc3S2)cc1OC (stereo not drawn) | 1.9 | 1.1% |

Given with values under each structure: part of the list above
Order of results – TRPML1 agonist | PINK1 modulator
[47] CCOC(=O)c1c(C)oc2nc(C)nc(NCC3CCN(Cc4ccc(F)cc4)CC3)c12
→ -0.7 | 0.5%
[48] Cc1ccccc1OCc1nnc(SCc2cc(=O)c3cc(F)ccc3[nH]2)n1C
→ 2.3 | 0.3%
[49] COc1ccc(Cl)cc1-n1c(CCC(=O)O)ccc1-c1ccc(C)cc1
→ 0.2 | 5.6%
[50] O=C(NCc1ccccc1Cl)C(=O)NCC(c1cccs1)S(=O)(=O)c1cccs1 (stereo not drawn)
→ 4.1 | -0.5%
[51] Cc1nnc(N2CCCC(C(=O)NCCc3ccccc3)C2)c2nn(-c3ccccc3)c(C)c12 (stereo not drawn)
→ 1.2 | 0.2%
[52] CCOCN(C(=O)Cn1c(CC(C)C)nc2ccccc21)c1c(C)cccc1CC
→ 0.4 | -0.4%
[53] Cc1cccc(NC(=O)c2nnn(CC(=O)Nc3ccc(C(C)C)cc3)c2N)c1C
→ -0.6 | 7.8%
[54] COc1cccc2sc(N(Cc3cccnc3)C(=O)COc3ccccc3)nc12
→ 1.6 | 4.0%
[55] Cc1ccccc1NC(=O)c1ccc(F)c(S(=O)(=O)N(C)Cc2ccccc2)c1
→ 3.0 | 2.1%
[56] CCC(Cc1ccccc1)NC(=O)Cn1ncc2c3ccccc3n(Cc3ccccc3)c2c1=O (stereo not drawn)
→ 1.8 | 9.6%
[57] CCCNC(=O)CCSc1nc(-c2ccc3c(c2)OCO3)cc(C(F)(F)F)n1
→ 6.1 | 1.2%
[58] COc1cccc(-c2nnc3n(Cc4ccc(F)cc4)c(=O)c4ccccc4n23)c1
→ -1.2 | -1.7%
[59] CSc1ccc(CCNC(=O)CCCn2nc(C)c3sc4ccccc4c3c2=O)cc1
→ -0.2 | 0.2%
[60] COc1ccc(CNC(=O)C2Cc3cc(S(=O)(=O)N4CCCCCC4)ccc3N2C(C)=O)cc1 (stereo not drawn)
→ -0.6 | 1.1%
[61] COc1ccc(C2CC(=O)N(CC(=O)Nc3cccc(C)c3C)c3ccccc3S2)cc1OC (stereo not drawn)
→ 1.9 | 1.1%
